# Assay outcomes from PubChem.
# INS promoter inh: TRM-6 insulin promoter activity inhibition | 130,000 tested, 0.9% active | inhibition, % at 2 µM | TRM-6 cells (human fetal islet line), insulin promoter-eGFP reporter, imaging; reporter expression induced with tamoxifen;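 active = inhibition above the mean plus 3 SD, with well images judged a real hit on visual review, cut at about 60% in these data, passing the limit was not always enough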
# GALR2 agonist: GALR2 (human) receptor agonism. GALR2-expressing cells, agonist activation read-out. activation, %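 (tested at 5 µM)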. 140,000 tested, 0.48% active. AID 803;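 active = above mean plus 3 SD of all compounds, about 5% in these data, not always enough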;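 note: 0% = vehicle buffer wells and 100% = reference agonist at full effect; tested in CHO reporter cells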
# RGS16-Gao HTS: RGS16-Galphao interaction regulator (human) | bead-based flow cytometry RGS16-Galphao binding, fluorescence; actives lie on both sides | AID 1441 | O15492+P09471 | 220,000 tested, 0.38% active | binding response (% of control), % at 10 µM;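 active = below 25% or above 175%, edge rows of some plates excepted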;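 note: Galphao activated by GDP with aluminum fluoride before binding; 100% = wells without compound and 0% = beads without RGS; some results beyond the cut were filed as inactive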
# HSV replic up: increases HSV replication in cells | HSV replication augmentation in cells, fold increase | maximum fold increase | 220,000 tested, 0.005% active | AID 1956;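 active = peak rise of 1.5-fold or more in the series; tested in PC3 cells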;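 note: first round at 10 µM; read as green reporter fluorescence; hits show the peak of a series up to 25 µM; 1 = signal of infected wells without compound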
# PKD1 kinase inh: inhibitors of human PKD1 kinase | inhibition, %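 (about 10 µM by stock and volumes)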 | Q15139 | 200,000 tested, 0.056% active | PKD1 kinase fluorescence polarization assay;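 active = inhibition of 50% or more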;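 note: controls were vehicle for no effect and a reference inhibitor for full effect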
# Target sequence (Q15139 whole entry, looked up): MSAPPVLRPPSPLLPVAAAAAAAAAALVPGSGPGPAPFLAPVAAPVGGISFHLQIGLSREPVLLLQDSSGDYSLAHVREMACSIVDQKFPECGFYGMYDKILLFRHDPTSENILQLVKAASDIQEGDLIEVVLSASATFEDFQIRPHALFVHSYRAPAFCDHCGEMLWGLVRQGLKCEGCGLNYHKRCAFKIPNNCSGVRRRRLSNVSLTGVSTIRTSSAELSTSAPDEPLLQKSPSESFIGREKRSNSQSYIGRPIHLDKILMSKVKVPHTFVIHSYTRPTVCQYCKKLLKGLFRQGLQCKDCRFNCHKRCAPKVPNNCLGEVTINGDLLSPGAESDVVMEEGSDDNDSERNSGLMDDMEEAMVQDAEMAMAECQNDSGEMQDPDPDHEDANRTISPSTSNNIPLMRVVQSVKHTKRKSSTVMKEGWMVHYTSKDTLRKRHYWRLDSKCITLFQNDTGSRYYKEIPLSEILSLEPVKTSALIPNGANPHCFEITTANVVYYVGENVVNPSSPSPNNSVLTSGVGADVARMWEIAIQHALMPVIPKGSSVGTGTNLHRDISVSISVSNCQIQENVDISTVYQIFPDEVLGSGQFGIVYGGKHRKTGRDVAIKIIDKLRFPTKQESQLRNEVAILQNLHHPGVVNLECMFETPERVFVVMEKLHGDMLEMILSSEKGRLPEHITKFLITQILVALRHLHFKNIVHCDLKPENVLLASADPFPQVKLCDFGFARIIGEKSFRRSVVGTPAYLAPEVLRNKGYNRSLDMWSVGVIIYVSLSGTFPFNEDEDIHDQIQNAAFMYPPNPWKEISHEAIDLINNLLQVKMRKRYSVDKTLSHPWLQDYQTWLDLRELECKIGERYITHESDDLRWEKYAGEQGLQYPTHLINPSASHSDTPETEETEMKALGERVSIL
# INS promoter inh cell count: further read-out of INS promoter inh, marked with its call; normalized cell count, %; measured here: cell count, toxicity; reference of the scale not given here;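 cells exposed to compound for 48 h; stained nuclei by imaging scaled within each plate; lower means fewer cells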
# HSV replic up primary fold: second read-out of HSV replic up, no call of its own (marks repeat the call); fold increase; compound at 10 µM; measured here: primary screen fold increase 10 uM; tested in PC3 cells;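 GFP signal in the first replicate; 1 = infected wells without compound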
# The depositor's hits bear a star; i = inactive; . = not tested or not shown.
SMILES,INS promoter inh,INS promoter inh cell count,GALR2 agonist,RGS16-Gao HTS,HSV replic up,HSV replic up primary fold,PKD1 kinase inh
CCCOc1cc(C)nc(-c2ccccc2O)n1,-12,80,-0.5,113,i,0.98,10
CCc1nnc2n1N=C(c1ccc(-c3ccc(Cl)cc3Cl)o1)CS2,21,88,-0.1,.,.,.,-5
Cc1cc(C=O)c(C)n1-c1ccc2c(c1)OCO2,.,.,.,109,i,0.98,0
Cc1nc2cc(NC(=O)CCS(=O)(=O)c3ccccc3)ccc2s1,.,.,0.0,98,i,0.94,-8
CCc1ccc(N2CC(C(=O)NC3=NCCS3)CC2=O)cc1 (configuration not stated),.,.,-1.0,102,i,0.87,-2
O=C(NNc1ccc([N+](=O)[O-])cc1)C1CC1c1ccccc1 (configuration not stated),7,186,-1.1,105,i,1.1,-7
COc1ccc(S(=O)(=O)Nc2cccc(S(=O)(=O)N3CCCCCC3)c2)cc1,.,.,0.3,104,i,1.1,3
CC(=O)Nc1nc2cccc([N+](=O)[O-])c2s1,.,.,.,99,i,0.94,-3
CCCC(=O)N1c2ccccc2C(=C2SC(C(=O)OC)=C(C(=O)OC)S2)C(=S)C1(C)C,54,75,-2.4,48,i,0.99,-9
O=C(O)c1cc(-c2cccnc2)nn1-c1ccccn1,0,101,-1.8,106,i,0.91,6
COC(=O)c1ccc2c(c1)N(Cc1ccccc1F)C(=O)c1ccccc1S2=O (configuration not stated),.,.,-1.6,101,i,0.62,-3
CN(CCCNC(=O)CSc1cc(=O)n(C)c2ccc(Cl)cc12)Cc1ccccc1,-20,101,.,106,i,0.79,-1
Cc1cccc(NC(=S)NCCO)c1C,-18,128,-0.3,108,i,1.2,-1
Clc1ccc(OCCSCc2nc3ccccc3[nH]2)cc1,-29,82,-1.1,98,i,0.7,5
COC(=O)CCC(=O)OC1(C)C(=O)C=C2C=C3CCCN3C=C2C1=O (configuration not stated),.,.,.,106,i,0.85,.
CCOC(=O)c1sc(NC(=O)CCCCCN2C(=O)c3cccc4cccc(c34)C2=O)nc1C,-13,96,-1.2,98,i,0.7,2
Cc1cccc(-c2ncc(CN3CCCC(CO)(Cc4ccccc4C)C3)cn2)c1 (configuration not stated),.,.,.,102,i,1,-3
COC(=O)c1sc(NC(=O)CSc2nnnn2-c2cccc(OC)c2)nc1C,-31,108,-1.9,103,i,1,2
CCOc1ccc2[nH]c(S(=O)(=O)CC)nc2c1Cl,-14,105,-3.1,102,i,1,-1
O=c1ccc(Oc2nc(N3CCOCC3)nc(N3CCOCC3)n2)n[nH]1,-47,69,0.0,101,i,0.93,-2
CC(=O)c1c(N)[nH]c(-c2ccccc2)nc1=S,5,89,-1.9,98,i,0.86,-12
Cc1nc(CCNC(=O)CC2C(=O)NCCN2Cc2ccoc2)nc2c1CCCC2 (configuration not stated),.,.,.,102,i,0.81,5
CCCS(=O)(=O)N1CCCC(C(=O)N2CCOCC2)C1 (configuration not stated),.,.,-0.8,91,i,0.96,-14
COc1ccc(C(=O)N/C(=C\c2cn(C)c3ccccc23)C(=O)OCC(C)C)cc1,.,.,-1.2,108,.,.,-18
CCOC(=O)C1(C/C(C)=N/NC(N)=O)CC(C)OC1=O (configuration not stated),.,.,-1.4,90,i,1.1,-1

# The list goes on:
SMILES,INS promoter inh,INS promoter inh cell count,GALR2 agonist,RGS16-Gao HTS,HSV replic up,HSV replic up primary fold,PKD1 kinase inh
O=C1CC(N2CCN(C3CC(=O)N(CCc4ccccc4)C3=O)CC2)C(=O)N1CCc1ccccc1 (configuration not stated),.,.,-0.3,98,i,1,-15
Cn1cnnc1SCC(=O)NCCC(c1ccccc1)c1ccccc1,31,116,-1.6,100,i,0.96,-1
CCOCCCNC(=O)C1CCN(c2cc(C)nc3c(-c4ccc(OC)c(OC)c4)c(C)nn23)CC1,.,.,-1.0,101,i,0.89,9
CCCNC(=O)CSc1nnc(-c2ccco2)n1C,.,.,-2.2,105,i,0.93,-2
COCc1cc([C@@H]2C[C@H]3CN(c4ccccc4)C(=O)[C@]34CCCN24)ccc1OC,.,.,.,104,i,0.64,-1
Clc1ncnc2c1oc1ccccc12,54,62,-2.1,95,i,0.95,-3
COC(=O)CCC(=O)Nc1ccc(N=Nc2ccccc2)cc1,-6,127,.,91,i,0.94,-2
Cn1c(SCC(=O)c2ccc(F)cc2)nnc1-c1ccccc1N,46,107,-0.5,112,i,0.75,-14
CCOC(=O)Nc1ccc2c(CN3CCN(S(=O)(=O)c4ccccc4)CC3)cc(=O)oc2c1,14,63,-0.6,102,i,0.78,3
CC(C)(CNC(=O)c1ccc([N+](=O)[O-])c(Cl)c1)CNC(=O)c1ccc([N+](=O)[O-])c(Cl)c1,18,98,-0.9,94,i,1,-10
Cc1nn2c(NCCN(C)C)c3c(nc2c1-c1ccccc1)CCCC3,.,.,.,98,i,0.73,.
Cc1cc(C)n2nc(SCc3ncc(-c4ccccc4)o3)nc2n1,.,.,.,126,i,0.75,.
CCC(C)(C)NC(=O)C(c1ccncc1)N(C(=O)c1sc(C)nc1C)c1ccc(F)cc1 (configuration not stated),.,.,.,101,i,0.98,3
Cc1ccc(C(=O)COC(=O)c2n[nH]c(=O)c3ccccc23)cc1,20,95,-1.2,103,i,0.9,-5
NC(=O)CSc1nc2ccccc2nc1SCC(N)=O,-7,94,.,100,i,0.92,-1
CC(=O)c1ccc(NC(=O)CCCN2C(=O)/C(=C/C(C)=C/c3ccccc3)SC2=S)cc1,0,160,-0.9,100,i,0.79,-9
CCN1CCc2nc(NC(=O)c3ccc4c(c3)OCCO4)sc2C1,0,103,-2.1,103,i,0.83,-4
CC1CC(c2ccccc2)n2nc(NC(=O)CCc3ccccc3)nc2N1 (configuration not stated),23,102,-3.1,105,i,1,-4
Cc1oc(S(=O)(=O)N2CCOCC2)cc1C(=O)Nc1ccc(F)cc1,.,.,.,94,i,0.89,.
CC(C)(C)c1ccc(C(=O)N2CCCN(c3ccc([N+](=O)[O-])cn3)CC2)cc1,.,.,.,96,i,0.87,.
CCN1CCCC1CNC(=O)CCNC(=O)c1cc(OC)c(OC)c(OC)c1 (configuration not stated),-38,197,-1.4,99,i,0.98,-2
CC(C)CC(=O)NC(=S)Nc1nc(-c2cccc3ccccc23)cs1,3,71,0.2,105,i,1.1,-5
COc1cc(/C=N/n2cnnc2)ccc1OCC(=O)N1CCOCC1,44,111,-1.5,99,i,0.96,-12
COC(=O)c1sccc1NC(=O)CC1C(=O)NCCN1C(=O)Nc1ccccc1 (configuration not stated),.,.,.,102,i,1.1,.
O=C(COC(=O)CNC(=O)c1ccc(F)cc1)Nc1cccc(S(=O)(=O)N2CCCC2)c1,-33,86,.,98,i,1.1,-5

# A portion from the list above, as a working copy:
SMILES,INS promoter inh,INS promoter inh cell count,GALR2 agonist,RGS16-Gao HTS,HSV replic up,HSV replic up primary fold,PKD1 kinase inh
COc1cc(/C=N/n2cnnc2)ccc1OCC(=O)N1CCOCC1,44,111,-1.5,99,i,0.96,-12
COC(=O)c1sccc1NC(=O)CC1C(=O)NCCN1C(=O)Nc1ccccc1 (configuration not stated),.,.,.,102,i,1.1,.

# (more compounds)
SMILES,INS promoter inh,INS promoter inh cell count,GALR2 agonist,RGS16-Gao HTS,HSV replic up,HSV replic up primary fold,PKD1 kinase inh
O=C(OCC#CCSc1nnc(-c2ccccc2)o1)c1cccs1,-3,80,-0.2,97,i,0.93,-2
O=C(Cn1cc([N+](=O)[O-])cn1)NCC1CCCO1 (configuration not stated),3,105,-0.2,101,i,1.1,-3
O=C(NCc1cccs1)C(=O)c1cn(CC(=O)N2CCOCC2)c2ccccc12,.,.,.,101,i,1,0
CC1(C)CC2CC(C)(CN2C(=S)NC(=O)c2ccccc2Cl)C1 (configuration not stated),.,.,-0.3,98,i,1,3
COc1cc(CN2CCN(Cc3ccc(C)cc3)CC2)c([N+](=O)[O-])cc1OC,.,.,.,93,i,0.92,-1
CCOc1ccc(-c2nnc(SCC(=O)N3CCOCC3)o2)cc1,35,112,-0.8,101,i,0.87,-5
COc1ccc(OC)c(/C=C/C(=O)OCC(=O)Nc2ccc(Cl)c(S(=O)(=O)N(C)C)c2)c1,.,.,.,100,i,0.86,0
CSc1cccc(NC(=O)N2CCN(C)CC2)c1,.,.,.,110,i,0.96,.
CCN(CC)C(=O)C(=O)c1cn(CC(=O)NCC2CCCO2)c2ccccc12 (configuration not stated),.,.,.,98,i,1,1
COc1ccc(Br)cc1CNC(=O)C1CCC(=O)N1C(C)C (configuration not stated),.,.,-2.8,.,i,0.93,-6
CCOC(=O)c1cnc(Nc2nc3ccccc3o2)nc1CN1CCN(c2ccccc2)CC1,18,160,-1.3,.,.,.,5
COc1ccc(-c2cc(C(F)(F)F)nc(NCc3ccco3)n2)cc1OC,.,.,-0.3,100,i,0.79,-2
CCSc1c(-c2ccccc2)nc2c(C)cccc2c1C(=O)O,23,140,-0.7,103,i,1.1,5
CCOc1ccc(-n2c(SCC(N)=O)nc3sc4c(c3c2=O)CCN(C)C4)cc1,.,.,.,107,i,0.94,.
Cn1cccc1Cc1nnc(SCC(=O)NC2CCCC2)n1-c1ccc(F)cc1,.,.,-3.9,104,i,1.1,-6
COc1ccc(C2C3=C(CCCC3=O)Nc3nc(C(F)(F)F)nn32)c(OC)c1OC (configuration not stated),30,88,-1.1,85,i,0.99,4
CCNc1ccc(C(=O)OCC(=O)N2c3ccccc3NC(=O)C2(C)C)cc1[N+](=O)[O-],-22,92,-0.1,100,i,0.98,-10
CCCOc1ccc(N2C(=O)CC(N3CCN(CCN=CC4C(=O)CC(C)(C)CC4=O)CC3)C2=O)cc1 (configuration not stated),-100,207,.,102,i,0.92,-7
O=C(NC1CCCCC1)N1CCCCCC1,47,84,-1.1,101,i,0.93,8
CS(=O)(=O)N(CC(=O)N/N=C/c1cccs1)c1cccc(Cl)c1Cl,.,.,-0.1,102,i,0.89,22
COc1cc(Cl)c(C)cc1NC(=O)[C@@H]1CCCN1C(=O)c1cccs1,-29,68,-1.3,102,i,1.1,6
Cc1ccnc(N/C=C(/NC(=O)c2ccccc2)C(=O)N/N=C\c2ccc(Cl)cc2)n1,.,.,.,102,i,0.99,.
CCOC(=O)c1c(C)[nH]c(C2=NNC(=NC(C)COC)SC2)c1C (configuration not stated),.,.,.,34,i,0.96,1
C=CCc1cccc2cc(C(=O)Nc3ccc(F)cc3)c(=O)oc12,13,116,1.1,88,i,1,6
O=C(CCn1c(=O)[nH]c2ccsc2c1=O)Nc1ccc(F)c(F)c1,-52,53,-0.1,98,i,0.94,-7
CC1(C)C2CCC1(C)C(OC(=O)CSc1nc(N)cc(=O)[nH]1)C2 (configuration not stated),3,118,-2.9,99,i,0.9,-3
O=C1CN(C(=O)COC(=O)c2ccccc2O)c2ccccc2N1,.,.,.,100,i,1.1,.

# Compounds above that contain an aryl methoxy group:
SMILES,INS promoter inh,INS promoter inh cell count,GALR2 agonist,RGS16-Gao HTS,HSV replic up,HSV replic up primary fold,PKD1 kinase inh
COc1ccc(S(=O)(=O)Nc2cccc(S(=O)(=O)N3CCCCCC3)c2)cc1,.,.,0.3,104,i,1.1,3
COC(=O)c1sc(NC(=O)CSc2nnnn2-c2cccc(OC)c2)nc1C,-31,108,-1.9,103,i,1,2
COc1ccc(C(=O)N/C(=C\c2cn(C)c3ccccc23)C(=O)OCC(C)C)cc1,.,.,-1.2,108,.,.,-18
CCOCCCNC(=O)C1CCN(c2cc(C)nc3c(-c4ccc(OC)c(OC)c4)c(C)nn23)CC1,.,.,-1.0,101,i,0.89,9
COCc1cc([C@@H]2C[C@H]3CN(c4ccccc4)C(=O)[C@]34CCCN24)ccc1OC,.,.,.,104,i,0.64,-1
CCN1CCCC1CNC(=O)CCNC(=O)c1cc(OC)c(OC)c(OC)c1 (configuration not stated),-38,197,-1.4,99,i,0.98,-2
COc1cc(/C=N/n2cnnc2)ccc1OCC(=O)N1CCOCC1,44,111,-1.5,99,i,0.96,-12
COc1cc(CN2CCN(Cc3ccc(C)cc3)CC2)c([N+](=O)[O-])cc1OC,.,.,.,93,i,0.92,-1
COc1ccc(OC)c(/C=C/C(=O)OCC(=O)Nc2ccc(Cl)c(S(=O)(=O)N(C)C)c2)c1,.,.,.,100,i,0.86,0
COc1ccc(Br)cc1CNC(=O)C1CCC(=O)N1C(C)C (configuration not stated),.,.,-2.8,.,i,0.93,-6
COc1ccc(-c2cc(C(F)(F)F)nc(NCc3ccco3)n2)cc1OC,.,.,-0.3,100,i,0.79,-2
COc1ccc(C2C3=C(CCCC3=O)Nc3nc(C(F)(F)F)nn32)c(OC)c1OC (configuration not stated),30,88,-1.1,85,i,0.99,4
COc1cc(Cl)c(C)cc1NC(=O)[C@@H]1CCCN1C(=O)c1cccs1,-29,68,-1.3,102,i,1.1,6
